D2 ag: human D2 receptor agonism in beta-arrestin assay. DiscoveRx PathHunter D2 beta-arrestin, luminescence, 90 min; 100% = 57 uM dopamine signal. AID 624465. activation, % (no concentration beside the values). 360,000 compounds, 0.084% hits. P14416; in the data active = activation above about 40%; inconclusive = about 15% to 40%; inactive = below about 15%; also: compound concentration not given in the record; the text of the record calls up to 30% inactive
Target sequence (P14416 whole entry, looked up): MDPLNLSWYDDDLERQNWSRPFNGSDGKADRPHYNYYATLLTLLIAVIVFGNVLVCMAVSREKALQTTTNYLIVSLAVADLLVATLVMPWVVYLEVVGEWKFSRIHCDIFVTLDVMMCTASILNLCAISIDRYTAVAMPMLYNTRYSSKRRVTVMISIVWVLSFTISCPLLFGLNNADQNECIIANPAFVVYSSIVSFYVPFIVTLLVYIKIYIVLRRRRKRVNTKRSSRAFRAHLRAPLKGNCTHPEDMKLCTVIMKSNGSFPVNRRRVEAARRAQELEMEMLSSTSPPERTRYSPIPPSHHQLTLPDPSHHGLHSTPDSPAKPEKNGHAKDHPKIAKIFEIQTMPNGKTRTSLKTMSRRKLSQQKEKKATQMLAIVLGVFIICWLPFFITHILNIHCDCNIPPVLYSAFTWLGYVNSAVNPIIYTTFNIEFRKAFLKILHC
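Agonist mode: compounds alone added to overnight-plated D2 PathHunter cells for 90 min at 37 C, with 57 uM final dopamine (EC100) defining full response. Beta-arrestin recruitment detected by chemiluminescent reagent, read after 1 h at ambient temperature.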
Sfp PPTase inh: inhibitors of Bacillus subtilis Sfp phosphopantetheinyl transferase; 310,000 compounds, 3.5% hits; AID 1490; Q9F4F7; Potency, µM, inactives show max response, negative = inhibition, hits mostly inhibitors; Biochemical Sfp PPTase activity, qHTS; active = well fitted inhibition curve with a large enough effect; inconclusive = small, poorly fitted or top-dose-only effect, or another doubt; inactive = no such curve, though single readings can be large or run the other way;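 also: the enzyme is Sfp with the accession as filed and its product quenches rhodamine fluorescence; potency is read from the fitted curve at half-maximal effect; 0% = enzyme reaction without inhibitor and -100% = no enzyme wells; top concentration of the series not given in the record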
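Compounds were incubated with enzyme (final 15 nM) for 15 min at room temperature before substrate addition started the reaction. Fluorescence at 525 nm excitation, 598 nm emission was recorded immediately and after 30 minutes.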
PINK1 modulator: changes PINK1 expression; Potency, µM (series often up to 76.6 µM), for inactives: at the highest dose activation (PINK1 increase), actives largely listed as activators; 410,000 compounds, 0.2% hits; PINK1 immunofluorescence, high-content cytometry, 24 h; active = well fitted activation curve with a large enough effect; inconclusive = small, poorly fitted or top-dose-only effect; inactive = flat fitted curve, though single readings scatter; cell line not stated here;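 also: potency is read from the fitted curve at half-maximal effect; % of control where 0% means no effect; nearly all actives have a fitted effect of over 65% in size; a mitochondrial uncoupler was the plate control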
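Fluorescence from anti-PINK1 antibody, together with nuclear and cell stains, was scanned on a laser-scanning cytometer. Before staining, stable-line cells were incubated 24 hours with compounds at 5 concentrations; primary antibody 12 h at 10 degrees C.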
ClpP mod: qHTS Assay for Activators of ClpP. ATP-dependent Clp protease proteolytic subunit (Bacillus subtilis (strain 168)), P80244. purified B. subtilis ClpP, FRET peptide cleavage, 20 min. Potency, µM (top dose mostly 57.5 µM), for the others: at the top dose activity change, negative = active. 340,000 compounds, 1.9% hits. AID 651965, 2013; active = well fitted falling curve with a large enough effect; inconclusive = small, poorly fitted or top-dose-only effect; inactive = no such curve, though single readings can be large or run the other way; also: potency is read from the fitted curve at half-maximal effect; the source files actives as falling curves though it sought activators and does not explain the sign; nearly all actives have a fitted effect of over 65% in size; many hits overshoot -100%
Target sequence (P80244 whole entry, looked up): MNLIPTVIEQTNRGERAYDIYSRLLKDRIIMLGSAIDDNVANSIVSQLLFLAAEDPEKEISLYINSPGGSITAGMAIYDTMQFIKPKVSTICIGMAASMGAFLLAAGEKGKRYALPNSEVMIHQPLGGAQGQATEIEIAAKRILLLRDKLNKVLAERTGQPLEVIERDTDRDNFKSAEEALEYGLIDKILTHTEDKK
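ClpP 10 microg/mL final, pH 8 Tris/KCl buffer with BSA, glycerol, Tween-20; compound pinned in; FRET-FV substrate; RT 20 min; Ex320/Em430; ΔFRET vs ADEP 5.8 microM, DMSO, no enzyme.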
Menin-MLL FL inh: inhibitors of human menin-MLL interaction, wild-type MLL peptide; Fluorescence polarization, fluorescein-MLL peptide displacement from menin; FP activity change, % at 61.4 µM; 290,000 tested, under 10 active; inconclusive = falling polarisation curve, or a change in total fluorescence; inactive = total fluorescence flat and polarisation flat or rising; no compound was filed as active; the % refers to the polarisation; negative = inhibition;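 also: % of control where 0% means no effect; inhibitors lower the polarisation; unlabelled MLL peptide was the positive control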
gsp antag: antagonizes gsp, the McCune-Albright syndrome mutation; gsp-mutant cells, cAMP HTRF, 30 min; control for the full effect not named in the record; 340,000 compounds, 0.4% hits; Potency, µM (top dose mostly 76.9 µM), for inactives: at the highest dose activity change, negative = inhibition, most hits filed as inhibitors; active = falling curve of any shape with a large fitted effect; inconclusive = falling curve, mostly with a smaller effect; inactive = flat or rising curve; cell line not stated here;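 also: intracellular cAMP measured with PDE inhibitor Ro 20-1724 present during compound exposure; potency is read from the fitted curve at half-maximal effect; % is scaled to controls: 0 for no effect and ±100 for the full control effect; nearly all actives have a fitted effect of over 65% in size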
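G418-selected cells were plated in DMEM/10% FBS for 16-24 h at 37C, then treated with compounds plus the PDE inhibitor […] (300 uM solution added) for 30 min at 37C. Intracellular cAMP was measured by HTRF after 30 min lysis at room temperature.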
gsp agonist: activates gsp, the McCune-Albright syndrome mutation. gsp mutant cells, cAMP HTRF, 30 min; control for the full effect not named in the record. Potency, µM (series often up to 76.9 µM), without a hit: at the highest dose activation (cAMP increase), usual class: activators. 340,000 compounds, 0.13% hits; active = well fitted activation curve with a large enough effect; inconclusive = small, poorly fitted or top-dose-only effect, or another doubt; inactive = no such curve, though single readings can be large or run the other way; cell line not stated here;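 also: phosphodiesterase inhibitor Ro 20-1724 added with compounds to block cAMP breakdown; potency is read from the fitted curve at half-maximal effect; nearly all actives have a fitted effect of over 60% in size; about a fifth of the inactives were tested at one dose only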
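Cells in DMEM/10% FBS with G418 were pretreated with compounds in DMSO plus […] (300 uM stock) for 30 min at 37C. cAMP was measured by HTRF (cAMP-d2 plus anti-cAMP antibody-K) after 30 min at room temperature.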
* marks the source's active call; other numbers are inactive results; ? = inconclusive; · = no result given; & = joins results of further samples; [ ] = another dose, or the depositor's remark.

SMILES	D2 ag	Sfp PPTase inh	PINK1 modulator	ClpP mod	Menin-MLL FL inh	gsp antag	gsp agonist
Cn1c(=O)c2c(nc(N3CCOCC3)n2C)n(C)c1=O	0.0	14%	1.6%	-0.2%	1.8	-2%	27%
Cc1ccc([C@H]2C[C@@H](n3cc(-c4ccc(F)cc4)nn3)[C@H](O)CN2Cc2cccs2)cc1	-5.6	·	6.1%	1.0%	·	·	0%
CCCn1c(OC)nc2c1c(=O)n(C)c(=O)n2C	-6.0	5%	1.1%	1.1%	4.0	0%	?
Cc1noc(C)c1C(c1ccccc1)S(=O)(=O)c1ccccc1 (stereo not drawn)	2.0	3%	0.5%	-0.2%	1.1	-10%	25%
O=c1[nH]cnc2c1oc1ccccc12	-4.7	6%	1.5%	-5.3%	1.3	14%	-2%
CN(c1ccccc1)S(=O)(=O)c1ccc(Cl)c(C(=O)NCc2ccco2)c1	1.7	·	2.4%	·	·	1%	-34%
COc1ccc(Cl)cc1NC(=O)CN(C)C(=O)c1cc2c(F)cccc2s1	5.8	·	5.1%	-2.5%	·	-24%	-31%[inhibitor]
CN(CCOCCOc1ccc(Cl)cc1Br)Cc1ccccc1	-0.4	3%	0.4%	·	-2.4	12%	-6%[15.4 µM]
Cc1ccnc(NC(=O)c2ccccc2NC(=O)C(C)(C)C)c1	2.0	1%	5.8%	0.5%	1.1	-12%	-4%
C=CS(=O)(=O)c1sc(Cl)c(N2CCOCC2)c1[N+](=O)[O-]	-8.4	22µM*	1.2%	·	-5.3	-1%	-8%[15.4 µM]
COc1ccc(NC(=O)N2CCCCCC2)cc1	-2.5	-4%	0.1%	·	0.5	11%	-5%[15.4 µM]
N/C(Cc1cccc2ccccc12)=N\OC(=O)COc1ccccc1	4.8	-2%	3.1%	1.2%	2.7	-2%	-10%
COC(=O)c1ccc(NC(=O)CN2CCN(S(=O)(=O)c3cc(Cl)ccc3OC)CC2)cc1	-0.3&-2.7	1%	2.9%	0.5%	1.6	5%[15.4 µM]	-28%
Cc1sc2nc(C3CC3)nc(N3CCN(S(=O)(=O)c4ccc(F)cc4)CC3)c2c1C	-1.4	8%	·	1.2%	7.2	-26%	8%
O=C(NCc1cccnc1)C1c2ccccc2C(=O)N1C1CCCCCCC1 (stereo not drawn)	-0.9	17%	?	-2.6%	0.6	-24%	18%
Cc1cc(C)nc(SCNC(=O)c2ccccc2)n1	0.2	7.9µM*	8.0%[38.3 µM]	-0.1%	-0.4	-3%	-16%
Cc1cc(C(=O)O)c(CSc2ncn[nH]2)o1	-9.1	-8%	6.1%	-5.2%	-0.3	5%	2%
O=C(Nc1ccc(NC(=O)C23CC4CC(CC(C4)C2)C3)cn1)c1ccco1	-5.0	-10%	9.6%	?	4.9	-2%	0%
COc1ccc(CN(CCCN2CCOCC2)C(=O)Nc2cccc(Cl)c2)cc1OC	-2.5	-12%	-1.2%	-9.3%	4.2	0%	29%
O=C(NNC(=O)c1ccc(Br)o1)c1ccc(NS(=O)(=O)c2cccs2)cc1	-1.9	·	0.8%	3.1%	·	-10%	-2%
COc1ccc(C(=O)N(Cc2ccco2)C(C(=O)NC2CCCC2)c2ccc(O)cc2)cc1OC (stereo not drawn)	-1.7	-5%	?	-1.8%	-1.1	-12%	-2%
O=CN1Cc2[nH]c3ccccc3c2N(c2ccc(Cl)cc2)C1=O	-7.1	-9%	-3.9%	-14%	2.0	3%	22%
N#CCCCSc1nnc(Cc2ccc3c(c2)OCO3)o1	-3.8	-1%	-1.5%	0.6%	1.2	5%	0%
N#Cc1cccc(C#N)c1Oc1ccc(S(=O)(=O)Nc2ccccc2)cc1	6.2	-8%	6.2%	·	1.4	-31%	0%[15.4 µM]
CC(C(=O)Nc1ccc(C(F)(F)F)cc1)N(C)CC(=O)N1CCN(Cc2ccccc2)CC1 (stereo not drawn)	-2.4	·	3.3%	-1.1%	·	-3%	-9%
COc1ccc(NC(=S)Nc2cnc3ccccc3c2)c(OC)c1	-3.5	-1%	0.0%	-14%	0.4	1%	12%
Cc1cc(C)n(CCCNC(=O)CCNS(=O)(=O)c2ccccc2C(F)(F)F)n1	0.6	5%	0.6%	-0.5%	·	6%	-4%[15.4 µM]
O=C(NC(=S)N1CCN(c2ccc(F)cc2)CC1)c1cccs1	-5.6	2%	1.0%	·	-0.2	-1%	0%
Cc1cc(NC(=O)CSc2nnc3c4c(C)c(C)sc4ncn23)no1	1.2	10%	·	3.6%	-0.7	1%	1%
Cc1nn(Cc2ccc(Cl)cc2)c(C)c1NC(=O)C1CC=CCC1C(=O)O (stereo not drawn)	-1.7	14%	0.4%	1.1%	-0.9	2%	-4%
Cc1ccc2[nH]c(C)c(CCNC(=O)NC3CCCCC3)c2c1	-3.1	-19%	9.6%	-0.1%	-2.7	-10%	-7%[15.4 µM]
CCOc1ccc(CCN2C(=S)N([C@@H](CC(C)C)CN3CCC[C@@H]3CN3C(=S)NC[C@@H]3Cc3ccccc3)C[C@@H]2Cc2ccc(O)cc2)cc1	-2.4	·	5.7%	-1.2%	·	·	·
O=C(c1cc(-c2ccc(Br)cc2)on1)N1CCOCC1	-2.2	12%	0.2%	·	0.7	-3%	10%[15.4 µM]
CCOC(=O)N(C)c1c(CC)nc2c(OCc3ccc(Cl)cc3Cl)cccn12	-4.6	·	2.6%	-3.6%	·	·	·
N#CC1=C(N)C(C#N)(C#N)C2(C(=O)Nc3ccccc32)C2CCCC=C12 (stereo not drawn)	10	-27%	3.8%[38.3 µM]	0.3%	?	3%	-4%
O=C(NC1(C(F)(F)F)C(=O)Nc2c1c(=O)[nH]c(=O)n2Cc1ccccc1)c1ccc(Cl)cc1Cl (stereo not drawn)	-1.9	17%	-7.1%[38.3 µM]	4.8%	2.4	-4%	4%
COc1ccc(NC(=O)CCCNC(=O)c2ccc(Cl)cc2)cc1S(=O)(=O)N1CCOCC1	-1.5	·	1.8%	-2.0%	·	9%	4%
CC1=C(C(=O)O)N2C(=O)C(NC(=O)c3c(F)cccc3F)C2SC1 (stereo not drawn)	-1.3	·	4.1%	0.7%	·	1%	-9%
CCOC(=O)c1sc(/N=C/N(C)C)nc1C	2.3	-3%	0.3%	-0.4%	-3.1	9%	-34%[inhibitor]
CC[C@@]12C(=O)N(c3cccc(F)c3)C(=O)N1[C@H](c1ccc(Br)cc1)[C@@H]1C(=O)N(C(C)(C)C)C(=O)[C@@H]12	-1.3	·	3.5%	-0.3%	·	-15%	?
Cn1c2c(c3ccccc31)CCN(CCCCN1CCN(c3ccccc3)CC1)C2=O	?	·	-3.8%	-6.9%	·	0%	12%
CCc1nccn1S(=O)(=O)c1cc(Br)ccc1OC	-1.7	-6%	-0.3%	-0.9%	1.8	20%	-6%
NC(=O)C1CCN(Cc2ccc(OCc3ccccc3)cc2)CC1	-6.0	-5%	-1.0%	-3.9%	-0.9	11%	11%[15.4 µM]
c1ccc(COc2ccc(OCCCNC3CCCC3)cc2)cc1	-3.1	-5%	26%	0.9%	4.1	18%	28%
CCN1C(=O)[C@H]2[C@H]3CN=C(SCC4CC4)N3[C@@](Cc3ccccc3)(C(=O)OC)[C@H]2C1=O	-3.2	·	-0.4%	-2.2%	·	7%	·
COc1ccc(-c2cc(=O)oc3cc(OCC(=O)Nc4ccc(CCO)cc4)ccc23)cc1	11	18%	-0.5%	-0.8%	1.1	7%	28%
COc1ccc(-n2nc(C(=O)Nc3nc4ccc(OC)cc4s3)c3ccccc3c2=O)cc1	-0.6	-6%	15%	-1.8%	2.4	14%	-45%[inhibitor]
O=C(Cn1nc(Cc2cccnc2)c2ccccc2c1=O)Nc1ccccc1F	0.8	-4%	1.3%	·	5.8	-2%	5%[15.4 µM]
COc1ccc(C(=O)C(C)Sc2nnc(C3CC3)n2C2CC2)cc1 (stereo not drawn)	4.7	·	-1.0%	1.8%	·	5%	-7%
O=C(COC(=O)c1cccc(S(=O)(=O)N2CCc3ccccc32)c1)NC1CCS(=O)(=O)C1 (stereo not drawn)	1.2	12%	1.4%	1.0%	6.8	-3%	15%
Cc1c(/C=C2\NC(=O)NC2=O)c2ccccc2n1C	-5.9	22%	-0.3%	-0.8%	-2.0	-32%	-1%[15.4 µM]
COC(=O)c1ccc(Cn2c(C)cc(C)[n+]2C)o1	-0.8	-18%	-1.1%	0.9%	-0.3	-1%	-13%
CNc1ccc(S(=O)(=O)NCC(=O)OCC(=O)Nc2cccc(Cl)c2Cl)cc1[N+](=O)[O-]	-1.3	-2%	0.5%	-0.8%	4.8	-12%	-25%
CCOc1cc(C2C(C(=O)OC)=CN(C3CCCC3)C=C2C(=O)OC)cc(Br)c1O	-3.1	6%	4.8%[38.3 µM]	32µM*	1.2	24%	?
C[C@H](CO)N1C[C@H](C)[C@@H](CN(C)Cc2ccc(C(=O)O)cc2)Oc2ncc(-c3ccc(C(=O)N(C)C)cc3)cc2C1=O	-2.9	·	1.8%	-2.0%	·	·	-77%[inhibitor]
CCOc1cccc(/C=N/NC(=S)Nc2cc(S(=O)(=O)N3CCOCC3)ccc2N2CCOCC2)c1O	-3.4	8%	-1.1%	-3.8%	·	-3%	0%
COc1cc(/C=C(\NC(=O)c2ccccc2)C(=O)N2CC3CC(C2)c2cccc(=O)n2C3)cc(OC)c1OC (stereo not drawn)	-0.1	8%	0.9%	·	0.0	8%	14%[15.4 µM]
COc1cccc(-c2nc3ccccc3s2)c1O	-3.3	-28%	7.5%	·	6.9	-1%	13%
O=C(CN1C(=O)CCSc2ccc(S(=O)(=O)N3CCCC3)cc21)NCc1ccccc1Cl	1.9	5%	4.6%	-2.9%	·	-14%	-10%
Cc1cc(Cl)c2ccccc2n1	3.8	2%	-0.6%	0.9%	0.6	9%	-7%[15.4 µM]
